CSC inhib = blocks cancer stem cells. cancer stem cell-like cells viability, luminescence. inhibition, % at 7.5 µM. 300,000 tested, 1.1% active. AID 2717;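 active = mean at 75% or more and at least half the replicates too; tested in HMLE shEcad cells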;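 also: 0% = median of negative and 100% = median of positive control wells; the first replicate is given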
Rce1 inhib = blocks yeast Ras-converting enzyme; calls only; Q03530; AID 2563; 290,000 tested, 0.27% active; yeast membranes, quenched prenylated peptide cleavage fluorescence;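 active = fall in fluorescence gain of 50% or more versus controls, with final raw signal at or below 3038400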;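 also: plate controls were neutral control wells for no effect and wells lacking membranes for full effect; tested at 10 µM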
MT1-MMP act inh = inhibitors of human MT1-MMP activation | P50281 | HT1080 RFP-PRO-GFP cells, GFP/RFP ratio fluorescence, overnight; percent of plate control window, DMSO zero | GFP/RFP ratio change, % at 20 µM | 360,000 tested, 0.061% active | AID 651647;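 active = GFP/RFP ratio change of at least 30% with cell ATP level not reduced by more than half and red fluorescence within 50% of control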; also: strong numbers were not always called active
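Assay system: HT1080 RFP-PRO-GFP cells. Benchmarks: DMSO vehicle wells and RFP-L50D-GFP reporter cell wells. Times: overnight cell settling, then overnight compound exposure, 37 °C, 5% CO2. Compound: 20 µM single dose, 1% DMSO. Read-out basis: GFP/RFP fluorescence ratio.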
Env fusion inh = inhibitors of HIV Env-mediated cell fusion. 360,000 tested, 1.1% active. HeLa-JRFL Env/CEM21 cell fusion, luciferase. inhibition, % at 12.3 µM;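 active = mean replicate inhibition score of at least 50 and every replicate individually at or above 50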;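 also: 0% = plate neutral controls and 100% = maraviroc near 300 nM; one replicate is shown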
UUG fidelity = alters start codon recognition fidelity in yeast; activity score, % at 18.7 µM; 350,000 tested, 0.13% active; AID 602363; S. cerevisiae UUG-firefly luciferase reporter, luminescence/redox ratio;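 active = replicate mean at a twofold rise or more, about +100% in these data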;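 also: firefly luciferase made from a UUG start codon reports start codon fidelity; reporter light over untreated wells divided by growth signal over untreated wells; some hits fall short of that in this replicate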
eIF4H inh = inhibitors of RNA binding by human eIF4H; Q15056; eIF4H fluorescence polarization binding assay; inhibition, % at 35 µM; 290,000 tested, 0.94% active; AID 2012;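 active = 50% or more with normal probe brightness, or confirmed in later tests; about a fifth of its hits are not listed in these tables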;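 also: calls also rest on retests at 20 µM and on dose response follow-up; 0% = protein and probe with vehicle and 100% = probe without protein; strong numbers were not always called active; many hits fall short of the cut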
PABP FP inh = PABP-poly(A) binding inhibition; P11940; 290,000 tested, 1% active; inhibition, % at 35 µM; PABP-poly(A) RNA binding, fluorescence polarization;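 active = 50% or more with normal probe brightness, or confirmed in later tests; about a fifth of its hits are not listed in these tables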;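 also: calls also rest on retests at 20 µM and on dose response follow-up; controls were probe without protein and protein plus probe with vehicle; some compounds called inactive have numbers as strong as hits; many hits fall short of the cut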
Target sequence (P11940 whole entry, looked up): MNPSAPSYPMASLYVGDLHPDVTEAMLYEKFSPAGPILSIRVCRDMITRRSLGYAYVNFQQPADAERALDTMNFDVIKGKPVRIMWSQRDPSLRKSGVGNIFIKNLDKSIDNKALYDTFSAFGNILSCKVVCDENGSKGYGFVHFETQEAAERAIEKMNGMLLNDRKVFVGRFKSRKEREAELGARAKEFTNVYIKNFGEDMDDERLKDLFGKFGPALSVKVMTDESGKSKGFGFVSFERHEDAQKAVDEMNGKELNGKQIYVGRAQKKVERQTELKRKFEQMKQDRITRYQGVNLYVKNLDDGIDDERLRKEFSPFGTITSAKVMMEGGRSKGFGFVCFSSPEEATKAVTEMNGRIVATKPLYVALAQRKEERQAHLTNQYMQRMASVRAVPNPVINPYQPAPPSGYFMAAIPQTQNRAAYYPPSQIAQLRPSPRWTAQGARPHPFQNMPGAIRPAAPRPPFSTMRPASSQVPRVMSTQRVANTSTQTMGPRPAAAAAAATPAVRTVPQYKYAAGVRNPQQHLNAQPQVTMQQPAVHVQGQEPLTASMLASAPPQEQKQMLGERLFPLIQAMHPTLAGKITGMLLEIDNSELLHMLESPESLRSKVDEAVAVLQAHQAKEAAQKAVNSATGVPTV
eIF4H inh retest = also measured in eIF4H inh; calls as there; inhibition, %; compound at 20 µM; confirmation average;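 mean of two retest wells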
PABP FP inh retest = further read-out of PABP FP inh, marked with its call; inhibition, %; compound at 20 µM; confirmation repeats;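 mean of two retest wells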
MT1-MMP act inh RFP = recorded beside MT1-MMP act inh, whose call it bears; RFP signal change, %; measured here: RFP expression control read;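 0 = vehicle wells; hits needed this value within 50% of zero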
* hit, by the source's call; i = inactive; x = no result given.

SMILES | CSC inhib | Rce1 inhib | MT1-MMP act inh | MT1-MMP act inh RFP | Env fusion inh | UUG fidelity | eIF4H inh | PABP FP inh | others
CC(Oc1ccc(Cl)cc1Cl)C(=O)NNC(=O)C(=O)N1CCCCC1 (stereo not drawn) | 2 | i | 5 | 8 | -16 | x | 1 | -10
COc1ccc(-c2noc(COc3ccc4c(c3)OCO4)n2)cc1OC | 13 | i | 2 | -1 | x | x | 7 | 0
O=S(=O)(NCc1cccc(C(F)(F)F)c1)NCc1ccccc1F | 17 | i | 0 | 4 | 10 | -18 | 13 | -12
c1ccc(-c2cnc(CN3CCN(c4ccccc4)CC3)o2)cc1 | -3 | i | -1 | -1 | 4 | -8 | -8 | 3
Nc1c(C(=O)NC2CCCCC2)nsc1C(=O)OCC(=O)NC1CCCCC1 | -15 | i | 2 | -18 | 23 | -13 | 6 | 4
COc1ccc(C(=O)N(C)Cc2ccon2)cc1OC1CCN(C(C)C)CC1 | -9 | x | 1 | 7 | 1 | -28 | 8 | -11
CN(N=Nc1nc[nH]c1C(N)=O)C1CCCCC1 | x | x | -8 | 1 | 56* | -19 | x | x
CC(C)Oc1ccc(C2CC(=O)NC2=O)cc1 (stereo not drawn) | -17 | i | -2 | 3 | 15 | -5 | -10 | -11
CCc1ccc(N/C(SC)=C(/C#N)C(N)=O)cc1 | 0 | i | 0 | -6 | x | x | 5 | 6
CCOc1ccc(/C=C/C(=O)OCC(=O)c2ccccc2OC)cc1OC | -7 | i | 0 | 1 | x | -19 | x | x
CC(OC(=O)CN1C(=O)COc2ccccc21)C(=O)NCc1ccc(F)cc1 (stereo not drawn) | x | i | -2 | 1 | -6 | -7 | -12 | -2
CCC(C)(C(=O)NC1CCCCC1)N(Cc1ccco1)C(=O)c1ccc2c(c1)OCO2 (stereo not drawn) | x | i | 1 | 2 | -44 | 0 | -2 | 4
COC(=O)C[C@@H]1C[C@@H]2c3cc(NS(=O)(=O)c4ccc(F)cc4)ccc3O[C@@H]2[C@H](CO)O1 | x | x | 3 | 1 | -20 | -16 | x | x
CC(C)n1cnnc1SCC(=O)NNC(=O)COc1ccc(Cl)cc1 | -3 | i | 3 | 7 | -4 | 10 | x | x
O=C(O)c1ccc(N/N=C/c2ccc(-c3ccc(Cl)cc3Cl)o2)cc1 | 44 | i | -2 | -4 | -72 | x | 76 | 11* | eIF4H inh retest=24;PABP FP inh retest=55*
O=C(NCCCN1CCOCC1)C1CCC(=O)N1C1CCCCC1 (stereo not drawn) | x | i | 1 | 4 | -226 | -16 | 2 | 9
CC1ON=C(c2ccccn2)N(Cc2ccc(S(C)(=O)=O)cc2)C1=O (stereo not drawn) | x | x | 4 | 9 | -54 | 0 | x | x
Cc1cc2cc(C)c3nnc(SCc4ccccn4)n3c2cc1C | -3 | i | -3 | -8 | 14 | x | -2 | -3
Cc1cc(=O)[nH]c(SCC(=O)Nc2ccc(S(=O)(=O)N3CCCCC3)cc2)n1 | -11 | i | -2 | 0 | -113 | -5 | -7 | 7
Cc1nc(NC(=O)CSc2nc(N)cc(N)n2)sc1C | -4 | i | 2 | 2 | -5 | -2 | -1 | 2
CCCn1c(C)cc(/C=C(\C#N)C(=O)OCC(=O)Nc2ccc(OC)c(Cl)c2)c1C | -9 | i | 4 | -1 | 6 | -31 | -6 | -1
O=C1c2ccccc2NC(c2ccc(-c3cccs3)o2)N1O (stereo not drawn) | 8 | x | 1 | 6 | -227 | -25 | x | x
N/C(=N\OC(=O)COc1ccc(Br)cc1)c1cccc([N+](=O)[O-])c1 | x | i | 3 | 0 | 8 | -17 | -5 | 10
O=C(O)c1cccc(-n2cccc2/C=C2/NC(=O)N(Cc3ccccc3F)C2=O)c1 | -4 | i | -1 | -4 | -9 | x | 94* | 30* | eIF4H inh retest=101*;PABP FP inh retest=58*
O=C(CN(c1cc(Cl)ccc1Cl)S(=O)(=O)c1ccccc1)N1CCOCC1 | 1 | i | -3 | 1 | x | -5 | -2 | 8

Among those listed so far, 4 contain fluorine.
SMILES | CSC inhib | Rce1 inhib | MT1-MMP act inh | MT1-MMP act inh RFP | Env fusion inh | UUG fidelity | eIF4H inh | PABP FP inh | others
O=S(=O)(NCc1cccc(C(F)(F)F)c1)NCc1ccccc1F | 17 | i | 0 | 4 | 10 | -18 | 13 | -12
CC(OC(=O)CN1C(=O)COc2ccccc21)C(=O)NCc1ccc(F)cc1 (stereo not drawn) | x | i | -2 | 1 | -6 | -7 | -12 | -2
COC(=O)C[C@@H]1C[C@@H]2c3cc(NS(=O)(=O)c4ccc(F)cc4)ccc3O[C@@H]2[C@H](CO)O1 | x | x | 3 | 1 | -20 | -16 | x | x
O=C(O)c1cccc(-n2cccc2/C=C2/NC(=O)N(Cc3ccccc3F)C2=O)c1 | -4 | i | -1 | -4 | -9 | x | 94* | 30* | eIF4H inh retest=101*;PABP FP inh retest=58*

More results
SMILES | CSC inhib | Rce1 inhib | MT1-MMP act inh | MT1-MMP act inh RFP | Env fusion inh | UUG fidelity | eIF4H inh | PABP FP inh | others
O=C(CN1CCN(c2ncc(C(F)(F)F)cc2Cl)CC1)Nc1ccc2c(c1)OCO2 | -1 | i | 5 | -1 | x | -32 | 0 | 2
CCOC(=O)COc1ccc(S(=O)(=O)Nc2ccc3c(c2)OCO3)cc1 | 1 | i | 2 | 6 | -14 | -13 | -4 | -9
Cc1nn(C)c(C(=O)Nc2ccc(Br)cc2F)c1Br | -9 | i | -1 | 3 | -34 | x | -4 | 7
Cc1ccc(-n2nnnc2-c2cnoc2-c2cccc(F)c2)cc1 | 42 | x | -3 | -3 | -122 | -14 | -7 | 14
Cc1oc(-c2cccs2)nc1CNC[C@H]1O[C@@H](n2cnc(C(N)=O)n2)[C@H](O)[C@@H]1O | x | x | -1 | 4 | -21 | -5 | x | x
COc1ccccc1NC(=O)Nc1nc(CC(=O)N2CCN(c3ccccc3F)CC2)cs1 | 4 | i | -1 | -7 | 2 | 4 | x | x
CCOc1cc(NC(=O)CCl)c(OCC)cc1NC(C)=O | 7 | i | 2 | 2 | 19 | -8 | -4 | 3
CC(C)Oc1cccc(C(=O)C2CCCN(C(=O)c3ccsc3)C2)c1 (stereo not drawn) | -12 | i | -2 | 3 | -27 | x | -4 | 6
CC(C)n1cnc2cc(NCc3nc4ccccc4n3C)ccc21 | x | i | 5 | 7 | -57 | -37 | 1 | 1
O=C(CCCN1C(=O)CCC1=O)Nc1ccc(Cl)c(C(F)(F)F)c1 | -4 | i | 0 | 1 | x | -11 | -3 | 8
COc1cc(NC(=O)C2=C(C)OCCS2)c(Cl)cc1C(=O)NCCN(C)C | -14 | i | 0 | 1 | -54 | -12 | -3 | 0
CN1C(=O)C(O)(C2OC(C)(C)CCC2=O)c2ccccc21 (stereo not drawn) | 2 | i | -2 | 3 | -40 | 0 | -5 | 0
C#CCN(C)CC/C=C1\c2ccccc2CSc2ccccc21 | 23 | x | -3 | -4 | x | -5 | -2 | 4
COc1ccc(CNC(=O)c2coc(=O)c3ccccc23)c(OC)c1 | -1 | i | -4 | -1 | 2 | -1 | -6 | 6
CC(Sc1nc2ccccc2n1C)C(=O)Nc1ccc(N2CCOCC2)cc1 (stereo not drawn) | -5 | i | 1 | 4 | 5 | x | -11 | -3
O=C(CCn1nc(-c2ccccc2)c2ccccc2c1=O)NN1CCOCC1 | -9 | i | 4 | 6 | 15 | -14 | 3 | 0
O=C1C(=O)N(CCN2CCOCC2)C(c2ccc([N+](=O)[O-])cc2)/C1=C(/O)c1ccc2c(c1)OCO2 (stereo not drawn) | -8 | i | 2 | 2 | -2 | -17 | -5 | 7
COc1ccc(OCCn2ccnc2)cc1 | -2 | i | -4 | 2 | -4 | 8 | -5 | 7
COCCN1CCN(C(=O)C2CCC(=O)N(Cc3ccccc3OC)C2)CC1 (stereo not drawn) | -11 | i | -1 | -1 | 20 | -10 | -9 | 3
O=C(O)C=Cc1c[nH]c2nccnc12 | x | x | -10 | -11 | 10 | -15 | x | x
COC(=O)c1ccc(NC(=S)NN2CCCCC2c2cccnc2)cc1 (stereo not drawn) | 6 | i | 10 | -6 | 14 | -20 | 1 | 7
CCOC(=O)c1ccc(S(=O)(=O)N2CCN(C(=O)c3ccccn3)CC2)cc1 | -1 | x | 3 | 1 | -6 | -15 | x | x
Cc1csc(NC(=O)CSc2nnc(-c3cc(C)on3)o2)n1 | 4 | i | 1 | 4 | 3 | -19 | 41 | -1
O=C(O)/C=C/C(=O)Nc1ccccc1SC(F)(F)C(F)(F)C(F)(F)F | -18 | i | -7 | -5 | -5 | x | -14 | 3
COc1ccc(Cn2c(=O)[nH]c3cc(C(=O)NCCCN4CCCCCC4)ccc3c2=O)cc1 | 9 | i | 1 | 6 | 3 | -12 | 10 | 9
SMILES | CSC inhib | Rce1 inhib | MT1-MMP act inh | MT1-MMP act inh RFP | Env fusion inh | UUG fidelity | eIF4H inh | PABP FP inh | others
CC1(C)CC(=O)c2cnc(NC(=O)CSC(=S)N3CCCCC3)nc2C1 | -5 | i | -1 | -2 | 6 | x | 3 | -5
COC(=O)c1c(NC(=O)c2cccnc2)sc(C(=O)N(C)C)c1C | -7 | i | 1 | 4 | 16 | x | -8 | 6
COc1cccc(C2Cc3ccccc3C(=O)O2)c1 (stereo not drawn) | -12 | i | -3 | 0 | x | -13 | 5 | -8
CC(C)(C)OC(=O)C[C@H]1C/C=C\C[C@@H](CC(=O)N(CCO)Cc2ccccc2)C(=O)N[C@H](C(C)(C)C)COC1=O | -6 | x | -5 | 1 | -6 | 1 | x | x
Cc1ccc(C(=O)N[C@H](C(=O)OCC(=O)NC2CCS(=O)(=O)C2)C(C)C)cc1 (stereo partly drawn) | -13 | i | 2 | 3 | x | x | -4 | -1
NC(=O)NC(CC(=O)OCC(=O)Nc1nnc(-c2ccccc2)o1)c1ccc(Cl)cc1 (stereo not drawn) | x | x | -3 | 10 | -29 | -31 | x | x
CC1CCN(S(=O)(=O)c2ccc3[nH]c(=O)cc(C(=O)O)c3c2)CC1 | -9 | i | 1 | -1 | -36 | -6 | -5 | -4
CCOC(=O)C(=CNc1nc(-c2ccccc2)c(C(=O)Nc2ccc(-c3ccccc3)cc2)s1)C(=O)OCC | 6 | i | -1 | -4 | -8 | -19 | -12 | 6
CC(C)(CO)CNC(=O)CCc1nnc(-c2ccc(-c3ccccc3)cc2)o1 | -3 | i | 1 | -2 | 23 | -13 | -8 | -4
S=C(NCc1ccccc1)NCc1ccccc1Cl | -12 | i | -1 | 1 | 7 | -15 | -2 | -1
CCCC(=O)NC(=S)Nc1ccccc1C(=O)OC | 6 | i | 1 | 2 | x | -15 | 0 | -5
CC1(C)CN(O)CCN1O | -6 | i | -3 | 2 | -40 | x | 12 | 2
Cc1nc2ccc(S(=O)(=O)NC(C(=O)N3CCCCCC3)C(C)C)cc2s1 (stereo not drawn) | -15 | i | -1 | 1 | 1 | 5 | -4 | 1
CC(CCN1CCOCC1)c1ccccc1 (stereo not drawn) | -15 | i | 3 | 2 | -3 | -24 | 3 | -6
O=C(CSc1nnc(CNC(=O)c2c(F)cccc2F)o1)NCC1CCCO1 (stereo not drawn) | 1 | i | -2 | 2 | x | 6 | -9 | 7
S=C(Nc1ccccn1)NC1CCCCC1 | -6 | i | 1 | -2 | 4 | -28 | 3 | -5
Cc1cc(C)nc(SCc2ccc(C(=O)N/N=C/c3ccccn3)cc2)n1 | 10 | i | 3 | -2 | 5 | x | 18 | -5
CCc1ccc(-c2cc(C(F)(F)F)n3nc(C(=O)Nc4c(C)nn(Cc5ccccc5C)c4C)cc3n2)s1 | x | i | 3 | -2 | x | x | 6 | -7
O=C(NCCNc1ccc([N+](=O)[O-])cc1)c1ccc(Cl)cc1 | 9 | i | 1 | -1 | 11 | x | -10 | 4
COc1ccccc1NS(=O)(=O)c1ccc(NC(=O)Cc2cccs2)cc1 | 3 | i | 1 | 2 | -11 | -16 | 1 | -3

The list is partial, so the mix of outcomes need not match the whole.
